High-throughput results from PubChem BioAssay.
Bfl-1 A1 inh: inhibitors of the anti-apoptotic protein A1, read as caspase activation; MEF A1-2A-BIM cells, Caspase-Glo 3/7 luminescence, 3 h; percent of clofoctol response, vehicle zero; caspase activation, % (test concentration not listed); 0.066% of 330,000 active;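 active means over half of replicate activation scores above 10%, or exactly half above 10 with the replicate mean above 10; inconclusive means replicate mean below 10 yet half the replicates above 10; inactive means over half of replicates below 10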;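 further: wells of about 30 µL received 50 nL stock; many hits fall short of the cut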
T cruzi repl: blocks replication of Trypanosoma cruzi; AID 1885; T. cruzi beta-gal in NIH3T3, luminescence, 90 h; inhibition, % (no concentration beside the values); 1.4% of 300,000 active;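 active means mean inhibition across valid replicates above about 55%, limit read from the data; inconclusive means mean below that limit but half or more replicates reach it; inactive means mean below it, under half of replicates reach it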;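 further: signal also drops with host cell toxicity which is not excluded here; 0% = plate median of DMSO wells and 100% = zero luminescence signal; higher percent means less beta-gal luminescence so fewer parasites; stock transfer was 50 nL into about 50 µL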
RanGTP-Impb inh: inhibitors of RanGTP-importin-beta interaction, primary screen, biochemical, FRET, CFP-Ran, YFP-importin-beta, homogeneous | cell-free CFP-Ran/YFP-importin-beta FRET ratio | inhibition, % (concentration not given with the values) | 1.1% of 300,000 active;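 active means most replicates above 15%; inconclusive means exactly half above 15%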;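 further: 0% = DMSO wells and 100% = Ran loaded with GDP instead of GTP; wells of about 40 µL received 100 nL stock; the first replicate is given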
LANA-H2A inh: blocks KSHV LANA binding to histone H2A/H2B; 0.6% of 320,000 active; AID 2629; inhibition, % (concentration not given with the values); Q9QR71; cell-free LANA-H2A/H2B peptide, fluorescence polarization; in the data active means inhibition mostly above about 10%, no sharp cut-off; inactive means mostly below about 6.7%;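 further: stock transfer was 7.5 nL into about 10 µL; 0% = median of vehicle wells and 100% = median of positive control wells; one replicate is shown; the record names a cut of 25% in any replicate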
Beta2AR agonist: human beta-2 adrenergic receptor agonism by FAP; Am2.2-beta2AR cells, FAP receptor internalization, flow cytometry; reference of the scale not given here; response, % (concentration not given with the values); 0.43% of 340,000 active; AID 504454;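 active means response above a set limit, near 3 SD of response in nonfluorescent compounds, cut at about 42% in these data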;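 further: stock transfer was 100 nL into about 11 µL; a reference agonist was the positive control; negative values mostly stem from fluorescent compounds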
Target sequence (P07550 whole entry, looked up): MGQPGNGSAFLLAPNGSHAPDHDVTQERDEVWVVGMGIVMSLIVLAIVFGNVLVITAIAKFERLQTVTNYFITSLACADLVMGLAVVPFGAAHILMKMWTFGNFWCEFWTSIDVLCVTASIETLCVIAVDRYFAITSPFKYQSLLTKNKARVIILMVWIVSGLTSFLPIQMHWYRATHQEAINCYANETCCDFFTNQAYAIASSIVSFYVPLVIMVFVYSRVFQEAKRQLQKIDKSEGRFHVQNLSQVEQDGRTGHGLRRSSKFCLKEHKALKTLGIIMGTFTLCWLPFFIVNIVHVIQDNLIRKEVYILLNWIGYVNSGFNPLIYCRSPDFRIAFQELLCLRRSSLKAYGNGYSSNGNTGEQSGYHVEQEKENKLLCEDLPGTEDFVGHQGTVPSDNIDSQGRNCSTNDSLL
UCH37 inh: blocks the human deubiquitinase UCH37 | Q9Y5K5 | purified proteasome/UCH37, Ub-AMC cleavage fluorescence | inhibition, % (concentration not given with the values) | 0.33% of 330,000 active | AID 588478;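 active means mean of two replicates above 20%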;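 further: 0% = compound-free wells with enzyme and 100% = wells lacking proteasome; stock transfer was 100 nL into about 20 µL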
Target sequence (Q9Y5K5 whole entry, looked up): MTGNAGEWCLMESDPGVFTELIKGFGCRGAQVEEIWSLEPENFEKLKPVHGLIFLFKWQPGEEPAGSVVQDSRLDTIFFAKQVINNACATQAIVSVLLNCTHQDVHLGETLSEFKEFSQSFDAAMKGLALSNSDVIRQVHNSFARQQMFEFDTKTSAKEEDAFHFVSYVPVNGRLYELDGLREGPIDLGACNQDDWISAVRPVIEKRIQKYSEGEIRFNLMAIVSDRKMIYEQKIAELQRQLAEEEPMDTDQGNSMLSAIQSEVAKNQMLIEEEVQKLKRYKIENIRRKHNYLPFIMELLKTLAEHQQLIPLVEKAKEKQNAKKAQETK
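Schedule: 30 min plus 25 min, room temperature / Material: human UCH37 within purified proteasomes / Technique: AMC fluorescence intensity at 355/460 nm / Buffer or medium: pH 7.4 Tris-HCl (50 mM) with ovalbumin, ATP-MgCl2, DTT / Controls: wells without proteasome as full block, compound-free enzyme plus substrate as uninhibited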
Calb FLC: affects C. albicans growth with fluconazole. C. albicans CaCi-2 (fluconazole-resistant clinical isolate) + fluconazole, Alamar Blue growth, 48 h. growth inhibition, % (concentration not given with the values). 0.57% of 300,000 active. AID 1979;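 active means most replicates above 75%; inconclusive means exactly half above 75%; inactive means most below 75%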;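 further: all wells also contain fluconazole at 8 µg/ml as a sub-toxic cotreatment; 0% = median of DMSO wells and 100% = median of geldanamycin control wells; wells of about 8 µL received 7.5 nL stock; the first replicate is given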
Beta cell apopt: blocks beta cell apoptosis; INS-1E cytokine-induced death, ATP luminescence, 48 h; percent of positive-control rescue, neutral wells zero; protection from apoptosis, % (test concentration not listed); 0.8% of 300,000 active;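 active means all replicates at 75% or more, or half of them and the mean; inconclusive means half reach 75% but not the mean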;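 further: 0% = cytokine-treated negative control wells and 100% = positive control rescue; higher means more ATP so stronger rescue from cytokine killing; wells of about 40 µL received 100 nL stock; the first replicate is given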
* hit, by the source's call; u = inconclusive; x = not tested or not shown.

SMILES	Bfl-1 A1 inh	T cruzi repl	RanGTP-Impb inh	LANA-H2A inh	Beta2AR agonist	UCH37 inh	Calb FLC	Beta cell apopt
COc1cc2c(C#N)c(N3CCN(c4ccccc4OC)CC3)nc(N)c2c(N)n1	0.2	32.1	-3.1	2.9	10.4	-27.2	1.5	9.5
O=C1CC(N2CCc3ccccc32)C(=O)N1c1ccccc1 (stereo not given)	-0.2	-3.2	3.5	-1.3	-4.9	0.3	8.9	-0.2
Cc1ccccc1NC(=O)COC(=O)CCSc1ccccc1	-0.3	-15.1	7.9	0.3	4.0	1.2	2.4	-4.4
CCOC(=O)CSc1nnc(CNC(=O)c2cccs2)n1Cc1ccccc1	-0.2	-2.6	u	-3.5	-1.3	1.2	31.8	-0.7
CC(=O)c1ccc(NC(=O)c2ccc3c(=O)n4c(nc3c2)CCCCC4)cc1	1.5	-12.9	2.5	-1.2	36.9	3.6	2.2	x
COC(CN1CCc2c(C)nc3c(C#N)cnn3c21)OC	-0.1	-14.4	-1.8	-1.3	5.3	-93.9	-3.7	-2.7
Cc1c(OC(C)C(=O)NCc2ccncc2)ccc2c3c(c(=O)oc12)CCCC3 (stereo not given)	2.0	0.6	-0.5	-19.5	2.6	-50.9	1.8	x
CCN(CCNC(=O)C1=C(C)C(=O)OC12CCC(C)CC2)c1ccccc1 (stereo not given)	0.1	9.8	0.4	2.8	-6.1	1.2	-4.1	4.7
Oc1ccc(NCc2ccc(OCc3ccccc3)cc2)cc1	-4.3	-11.8	2.3	1.2	0.4	-2.3	13.3	29.9
Cc1ccc(NC(=O)CN2C(=O)S/C(=C\c3cc(C)n(-c4cccc(C(=O)O)c4)c3C)C2=O)cc1	0.1	52.5	1.4	-5.1	0.2	-1.5	28.0	x
CCCCOc1ccc(NC(=O)CSc2cccc3cccnc23)cc1	0.1	32.5	1.3	5.4	-8.4	-81.3	-13.6	4.4
CN1CCN(c2nc(Nc3cccc(C(F)(F)F)c3)nc(N3CCOCC3)n2)CC1	0.7	57.6*	-1.6	4.9	6.8	1.1	40.6	9.0

Arranged by count of non-hydrogen atoms (smallest number first): part of the list above
SMILES	Bfl-1 A1 inh	T cruzi repl	RanGTP-Impb inh	LANA-H2A inh	Beta2AR agonist	UCH37 inh	Calb FLC	Beta cell apopt
COC(CN1CCc2c(C)nc3c(C#N)cnn3c21)OC	-0.1	-14.4	-1.8	-1.3	5.3	-93.9	-3.7	-2.7
O=C1CC(N2CCc3ccccc32)C(=O)N1c1ccccc1 (stereo not given)	-0.2	-3.2	3.5	-1.3	-4.9	0.3	8.9	-0.2
Oc1ccc(NCc2ccc(OCc3ccccc3)cc2)cc1	-4.3	-11.8	2.3	1.2	0.4	-2.3	13.3	29.9
CCCCOc1ccc(NC(=O)CSc2cccc3cccnc23)cc1	0.1	32.5	1.3	5.4	-8.4	-81.3	-13.6	4.4
CCN(CCNC(=O)C1=C(C)C(=O)OC12CCC(C)CC2)c1ccccc1 (stereo not given)	0.1	9.8	0.4	2.8	-6.1	1.2	-4.1	4.7
CCOC(=O)CSc1nnc(CNC(=O)c2cccs2)n1Cc1ccccc1	-0.2	-2.6	u	-3.5	-1.3	1.2	31.8	-0.7
Cc1c(OC(C)C(=O)NCc2ccncc2)ccc2c3c(c(=O)oc12)CCCC3 (stereo not given)	2.0	0.6	-0.5	-19.5	2.6	-50.9	1.8	x
COc1cc2c(C#N)c(N3CCN(c4ccccc4OC)CC3)nc(N)c2c(N)n1	0.2	32.1	-3.1	2.9	10.4	-27.2	1.5	9.5
Cc1ccc(NC(=O)CN2C(=O)S/C(=C\c3cc(C)n(-c4cccc(C(=O)O)c4)c3C)C2=O)cc1	0.1	52.5	1.4	-5.1	0.2	-1.5	28.0	x

(more compounds)
SMILES	Bfl-1 A1 inh	T cruzi repl	RanGTP-Impb inh	LANA-H2A inh	Beta2AR agonist	UCH37 inh	Calb FLC	Beta cell apopt
CCOC(=O)C(C(=O)NCc1ccc(C)cc1)c1ncc(C(F)(F)F)cc1Cl (stereo not given)	-0.8	3.7	-1.0	-2.2	3.1	1.5	-11.9	-3.8
CCCCc1nc2cc(C(=O)N3CCCC(COC)C3)ccc2o1 (stereo not given)	-0.3	1.3	0.8	3.6	-14.8	0.1	-1.1	2.0
Cc1cc(S(=O)(=O)ON2C(=O)c3ccccc3C2=O)ccc1F	0.8	-15.5	2.8	6.0	-3.2	-4.5	8.8	-4.9
COc1ccc2c(c1)-c1c(ssc1=S)C(C)(C)N2S(=O)(=O)c1ccc(C)cc1	-0.2	39.5	u	0.6	7.6	1.4	-1.3	2.1
COc1ccc([N+](=O)[O-])cc1NC(=O)C(C)OC(=O)c1ccccn1 (stereo not given)	0.0	-15.8	3.1	3.6	-6.9	3.6	-10.9	-3.2
Fc1ccc(COc2ccccc2CNCc2ccncc2)cc1	-0.1	56.4*	1.5	3.2	-11.5	0.0	-4.7	2.0
O=C(COC(=O)C1=COCCO1)NCc1ccc(F)cc1	0.4	u	-0.6	-2.0	-2.4	2.2	0.0	x
Cc1ccc(NC(=O)C(C)Sc2nnc(-c3cccnc3)o2)cc1 (stereo not given)	-0.5	-5.1	u	3.9	1.8	1.8	5.9	2.0
COc1ccc(CNC(=O)CCCn2nc(C)c3c(C)n(-c4ccc(C)cc4)nc3c2=O)cc1OC	0.8	-4.1	-1.9	-3.7	-5.9	4.7	3.3	1.4
CCCn1c(N)c(N(CCOC)C(=O)c2ccc(N3CCCC3=O)cc2)c(=O)[nH]c1=O	0.9	-6.6	0.5	-1.5	-2.0	0.8	7.9	0.8
O=c1[nH]c(CSc2ccccn2)nc2c1oc1ccccc12	0.7	6.6	4.2	-1.4	16.9	4.1	22.9	-0.9
CCOc1ccc(C(C)NC(=S)NCc2ccc(Cl)cc2)cc1 (stereo not given)	-0.7	16.6	1.5	-0.4	4.4	2.1	-45.7	1.6
Cc1ccc(S(=O)(=O)N2CCN(C(=O)Cc3c(F)cccc3Cl)CC2)cc1	1.5	-3.9	x	2.6	1.0	2.6	1.6	1.3
Cc1cccc(NC(=O)C2(C)CC3c4ccccc4C2c2ccccc23)c1C (stereo not given)	-0.5	26.0	2.4	1.7	4.7	1.6	4.5	8.2
Cc1cc(C)c(NC(=O)/C(C#N)=C/c2ccc(OCc3ccc(F)cc3)cc2)c(C)c1	-0.2	12.8	4.1	-2.5	5.9	6.9	-7.3	14.2
S=C(c1c[nH]c2ccccc12)N1CCOCC1	0.7	-11.1	2.1	2.8	5.3	0.7	-8.3	-1.3
O=C(Cc1ccc(Br)cc1)NCCc1ccc(Cl)cc1Cl	0.8	30.5	1.4	-1.9	2.8	4.3	-3.8	5.6
c1ccc(C[C@H]2CNCCN2CCc2cccc3ccccc23)cc1	-0.2	-12.2	-3.0	-0.4	18.0	-2.0	-3.8	3.6
O=C1CN(C(=O)COc2ccc(Br)cc2)c2ccccc2N1	0.9	6.9	u	-1.6	2.6	-0.5	7.0	0.6
CC1(C)Cc2c(c(N3CCCC3)nc3sc4c(N5CCN(CCO)CC5)ncnc4c23)CO1	0.0	x	x	-6.3	71.1*	-19.3	x	13.1
CCCCNC(=O)C1CCN(S(=O)(=O)N2CCCCCC2)CC1	2.5	-11.2	1.2	-0.8	-3.7	6.6	-4.1	-8.1
CCC(C)NC(=O)C1c2cc(OC)c(OC)cc2C(=O)N(C)C1c1ccc(OC)cc1 (stereo not given)	0.8	-5.7	u	-1.8	0.2	2.7	16.5	-1.8
CCC(C)N(C(=O)COC(=O)c1nc2nc(C)cc(C)n2n1)C1CCS(=O)(=O)C1 (stereo not given)	1.3	-8.5	-0.2	-16.4	-9.4	3.1	-7.1	-2.1
CCc1cccc(NC(=O)c2cccc3c2C(=O)N(C2CCCCC2)C3)c1	0.5	30.7	-1.8	5.1	-1.2	3.2	-4.3	0.1
COc1ccccc1/C=C(/NC(=O)c1ccc(Cl)cc1Cl)C(=O)O	-1.1	-6.0	-4.7	-5.0	5.3	2.2	u	-2.8
Cc1ccc(NC(=O)c2cnccn2)c(OC(F)F)c1	-0.1	-16.6	-0.1	1.3	-5.5	1.3	-17.6	-9.3
COc1cc(NC(=S)N2CCN(CCO)CC2)cc(OC)c1	-0.4	-5.1	-1.2	-3.4	2.4	1.4	1.1	x
COc1ccc(N2C(S)=C(C#N)C(=O)NC23CCCCC3)cc1	-5.2	-21.7	-1.6	-2.5	-11.6	3.7	3.7	3.9
O=C1C2C3C=CC(C3)C2C(=O)N1c1ccc(N2CCN(c3ccccn3)CC2)c([N+](=O)[O-])c1 (stereo not given)	0.6	16.6	3.7	-5.1	3.8	x	0.1	53.7
CC1(C)Oc2ccc(C(=O)N3CCCC3)cc2N(CC(=O)NCc2ccccc2)C1=O	1.1	5.2	0.9	1.0	-1.9	-0.4	3.0	4.1
COc1ccc(-n2c(=O)c3c4c(sc3n(CC(=O)Nc3cc(C)[nH]n3)c2=O)CCC4)c(OC)c1	0.3	-3.4	6.4	-3.1	-1.7	5.1	1.2	-12.0
Cc1ccc(CS(=O)(=O)Cc2ccc(C(=O)NCC3CCCO3)o2)cc1 (stereo not given)	-0.7	-26.9	2.1	7.1	-4.1	2.4	2.6	-5.1
O=C(NCc1ccc(F)cc1)c1ccccc1OCc1ccccc1	-1.0	14.8	-2.3	-3.5	-9.4	4.3	3.9	5.2
COc1ccc(CC(=O)n2nc(-c3ccc(Cl)cc3)nc2NCc2ccco2)cc1	0.0	-8.1	-3.3	-2.6	1.9	5.6	1.7	0.0
COc1cccc2cc(C(=O)C3=C(O)C(=O)N(CCN4CCOCC4)C3c3ccc(C(C)(C)C)cc3)oc12 (stereo not given)	0.1	-1.0	-0.7	-6.7	18.0	8.3	11.6	-4.4
COC(=O)C[N+](C)(C)CC#Cc1ccccc1	-1.4	14.7	1.7	-5.2	36.6	2.3	-0.1	-1.1
